HSD17B inhib: blocks hydroxysteroid 17-beta dehydrogenase activity | AID 893 | recombinant HSD17B10, NADH fluorescence kinetic; many of its hits are not listed in these tables | Potency, µM (top dose mostly 57.1 µM), inactives show at the top dose activity change, negative = inhibition, actives largely listed as inhibitors | hit rate 7.6% among 75,000; active means well fitted inhibition curve with a large enough effect; inconclusive means small, poorly fitted or top-dose-only effect; inactive means no such curve, though single readings can be large or run the other way;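 further: the protocol describes HADH2 (HSD17B10) and not the HSD17B4 of the title; nearly all actives have a fitted effect of over 70% in size; most hits overshoot -100% by far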
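20 nM HADH2, pH 9.0 Tris/Tween; cpd preinc 15 min RT; start w/ 1 mM NAD+ + 90 uM b-hydroxybutyryl-CoA; kinetic fluor ex360/em450 q30s x 4 min; delta last-first.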
Numbers without * were called inactive; ? = inconclusive; & = joins results of further samples; [ ] = dose if it differs, or a comment. On the % scale 0 is the no-effect control and ±100 the full control effect; potency means the concentration at half of the fitted maximal effect. Only part of the results is shown; count on the stated rates, not on these rows.

SMILES | HSD17B inhib
CC(C)[C@@H](OCc1ccccc1)[C@H](C)/C=N\O[C@@H](C)c1cn([C@H](CO)Cc2ccccc2)nn1 | -0.4%&0.2%[11.4 µM]
O=C(CCNS(=O)(=O)c1ccc2c(c1)CCC(=O)N2)NCc1ccc2c(c1)OCO2 | -0.3%
CC(C)CCCC(C)C1CCC2C3C(=O)C=C4CC(O)CC[C@@]4(C)C3CC[C@@]12C (some centres undefined) | -2.0%
O=C(C1CCN(S(=O)(=O)c2cccc3cccnc23)CC1)N1CCc2ccccc21 | 2.8%
COc1ccc(-n2c(=O)cnc3cnc(Nc4ccccc4)nc32)cc1 | -17.9%
Cc1ccc(N(C(C)C(=O)N2CCC(C)CC2)S(C)(=O)=O)cc1C (centres undefined) | 7.9%
O=C(Nc1nncs1)C1(c2ccccc2)CCCC1 | 13.0%
CCN1C(=O)/C(=C\N2CCN(c3cccc(Cl)c3)CC2)SC1=S | 2.8%

Part of the list above, as labelled records:
smiles: COc1ccc(-n2c(=O)cnc3cnc(Nc4ccccc4)nc32)cc1
  HSD17B inhib = -17.9%

smiles: CC(C)[C@@H](OCc1ccccc1)[C@H](C)/C=N\O[C@@H](C)c1cn([C@H](CO)Cc2ccccc2)nn1
  HSD17B inhib = -0.4%&0.2%[11.4 µM]

smiles: O=C(CCNS(=O)(=O)c1ccc2c(c1)CCC(=O)N2)NCc1ccc2c(c1)OCO2
  HSD17B inhib = -0.3%

Going on with the list:
SMILES | HSD17B inhib
O=C(Nc1ccccc1Oc1ccccc1)c1ccc(Br)o1 | -11.7%
Cc1cc(N2C(=O)CC(N3CCN(c4ccc(C(=O)c5cccs5)cc4)CC3)C2=O)no1 (centres undefined) | 3.9%
COC(=O)CC1C2(C)CC34OC5(C)O[C@@]6(C7/C(=C(/OC)C(C)C)C(=O)OC(c8ccoc8)[C@@]7(C)C(OC(=O)C(C)C)C(OC)[C@]6(O5)[C@@]13C)C(OC)[C@]4(OC)C2OC(C)=O (some centres undefined) | 4.2%
O=C(COc1ccc(-c2ccccc2)cc1)N1CCN(C(=O)c2cccnc2)CC1 | 11.3%
COc1ccc2cc(CN(CCO)C(=O)c3ccccc3F)c(=O)[nH]c2c1 | 0.3%
O=c1oc(-c2ccco2)nc2ccccc12 | -10.1%
CCOC(=O)c1cccc(NC(=O)CCn2cccc2)c1 | -1.7%
CCOC(=O)Cn1nnc(-c2ccc(S(C)(=O)=O)cc2)n1 | 5.0%
Cc1cc(-c2nnc(SCC(=O)N3C(C)CCCC3C)o2)no1 (centres undefined) | 0.8%
[O-][N+]1=C(c2cccs2)CN(O)C1 | 4.7%
[O-][n+]1onc2c1CCc1c-2nc(-c2ccccc2)n1OCc1ccccc1 | -2.6%
C=CCn1c(CC(=O)Nc2cccc(OC)c2)nnc1SCC(=O)NC1CCCCC1 | 7.8%
CCOC(=O)CNC(=O)c1sc(NC(=O)c2ccccc2F)nc1C | 3.7%
CCCCCCn1c(N2CCC(C(N)=O)CC2)nc2c1c(=O)[nH]c(=O)n2C | 10.0%
CCOC(=O)CNC(=O)c1ccccc1Br | 0.6%
O=C(COC(=O)CCc1ccc(S(=O)(=O)N2CCCCC2)cc1)Nc1ccc2c(c1)OCO2 | -14.8%
CC(=O)NC(CCS(C)(=O)=O)C(=O)Nc1ccc2c(c1)OCCO2 (centres undefined) | 17.6%
Cc1c(NC(=O)COc2ncnc3ccccc23)c(=O)n(-c2ccccc2)n1C | -1.4%
Cn1c(=O)c2c(nc(CN3CCOCC3)n2CC(=O)c2ccccc2)n(C)c1=O | -0.4%
COc1nc2c(s1)C(=O)NCCC2 | 7.0%
Cc1noc(C)c1-c1nc(N2CCN(C)CC2)c2ccccc2n1 | -3.1%
Cc1cc(C(=O)N[C@@H](c2ccccc2)[C@]2(C)C[C@H]2[C@@H](C)C(=O)Nc2ccc3ccccc3c2)no1 | 9.2%
COc1ccc(OC)c(NC(=O)Cn2cc(C(=O)c3ccco3)c3ccccc32)c1 | ?
O=C(O)CCc1ccc(-c2ccc(Cl)cc2)n1Cc1ccco1 | 25.1µM*
Cc1noc(C)c1COC(=O)c1cccc(S(=O)(=O)N2CCCCCC2)c1 | 10.6%
Cc1onc(-c2ccccc2)c1C(=O)N1CCN(S(=O)(=O)c2ccc3c(c2)OCCO3)CC1 | 23.4%
CCNc1nc(Oc2ccc(=O)[nH]n2)nc(SC)n1 | 8.2%
COCCNc1nc(SCC(=O)N2CCN(c3ccccc3)CC2)nc2ccccc12 | -9.4%
CC(C)(C)c1cc(CN2CCCC(O)C2)c(O)c(C(C)(C)C)c1 (centres undefined) | -20.5%
CC(=O)Nc1cc(CN2CCCCC2)c(O)c2ncccc12 | 0.7%[11.4 µM]
CC(C)COC(=O)N(C)c1ccc(C(O)(C(F)(F)F)C(F)(F)F)cc1 | -11.8%
O=C(c1ccccc1)N(Cc1cccs1)C1CCS(=O)(=O)C1 (centres undefined) | 8.1%
N#Cc1cccc(-c2cc(NCc3cccs3)ncn2)c1 | 25.1µM*
CC(=O)c1cc2c(cc1NC(=O)Nc1cccc(Cl)c1)OCCO2 | 31.6µM*
COc1ccc(OC)c(NC(=O)CSc2ncccc2C(=O)O)c1 | -4.8%
c1ccc2sc(N3CCN(Cc4nnnn4CC4CCCO4)CC3)nc2c1 (centres undefined) | -5.8%
CC(=O)c1ccc(N2CCCCCC2)c(F)c1 | 5.4%
C=CCn1c(CCNC(=O)C(C)(C)C)nc2ccccc21 | 2.3%
O=C(c1ccncc1)N1CCC2(CCCN(Cc3ccccc3)C2)CC1 | 13.3%
CN(C)CCN1CC(C(=O)O)CC1=O (centres undefined) | 0.1%
O=C(O)c1cc(-c2ccco2)nc2ccc(Br)cc12 | 15.8µM*
COc1ccc(OC)c(C(=O)c2oc3ccccc3c2NC(C)=O)c1 | -1.3%
Clc1ccc(-n2nnnc2-c2ccccc2)cc1 | -9.4%
Cn1cc(SCC(=O)NCC2CCCO2)c2ccccc21 (centres undefined) | -11.2%
O=C(CCS(=O)(=O)c1ccc(Br)cc1)N1CCN(Cc2ccccc2)CC1 | 2.4%
OC[C@@H]1O[C@@H](n2cnc3c(Nc4ccccc4)ncnc32)[C@@H](O)[C@H]1O | -3.7%
CC1(C)OC(=O)C(=CNc2cccc(O)c2)C(=O)O1 | -17.4%
CCc1ccc(C2CC(c3ccccc3)n3ncnc3N2)cc1 (centres undefined) | -1.3%
CN(C)S(=O)(=O)c1cc(C(=O)NCC2CCCO2)c(Cl)cc1Cl (centres undefined) | -5.1%
CN(CC(=O)N1CCCC1)S(=O)(=O)c1cc(Cl)ccc1Cl | 3.8%
Cc1cc2c(ccc3[nH]onc32)n1 | 15.8µM*
O=C(CCCc1ccccc1)NCCCN1CCOCC1 | 2.3%
Cc1cccc(NC(=O)CSc2nnc(-c3ccc(S(=O)(=O)N4CCOCC4)cc3)n2C)c1 | 5.2%
CC(C)OC(=O)CSc1nnc(-c2ccccn2)n1C | 8.0%
COCC(=O)N1CCC[C@@]2(CCN(Cc3ccccc3OC)C2)C1 | -9.2%
OC1(c2cccnc2)CCN(Cc2nnnn2C2CCCCC2)CC1 | -14.0%

Next compounds:
SMILES | HSD17B inhib
O=C(NCc1ccccn1)c1ccc(COc2ccc(Cl)cc2)o1 | -8.7%
CC(NC(=O)c1ccccc1NC(=O)c1ccco1)c1ccccc1 (centres undefined) | ?
CCn1c(SCC(=O)Nc2nccs2)nnc1-c1ccc(C)cc1 | -12.2%
COc1ccccc1C1CC(c2ccc(Cl)cc2)Nc2ncnn21 (centres undefined) | -0.1%
Cc1cc(=O)oc2cc(O[C@@H]3O[C@H](C(=O)O)[C@@H](O)[C@H](O)[C@H]3O)ccc12 | 31.6µM*
CCCS(=O)(=O)N1CCCC(C(=O)NCCc2ccc(Cl)cc2)C1 (centres undefined) | -5.3%
O=C1c2ccccc2C(=O)N1CCCc1nc(-c2ccccn2)no1 | -1.7%
Nc1n[nH]c(-c2ccc(Br)cc2)c1Cl | -0.2%
COc1cc(NC(=O)COc2ccc(F)cc2)nc(OC)n1 | 11.7%
NC(=O)c1nsc(C(=O)N(CC(=O)NCc2ccc3c(c2)OCO3)C2CCCC2)c1N | ?
COc1ccc2cc(CN(CC3COCCO3)S(=O)(=O)c3ccc(Cl)cc3)c(=O)[nH]c2c1 (centres undefined) | ?
CC(=O)c1cc(-c2ccc(F)cc2)n(CCC(=O)Nc2cc(C)[nH]n2)c1C | 10.9%
CCC(=O)N(Cc1cc2cc(OC)ccc2[nH]c1=O)c1cc(C)ccc1C | 15.8µM*
O=C(O)C1CC2(C1)CC(C(=O)O)C2 (centres undefined) | -3.8%[11.4 µM]
CCOC(=O)C1(CC)CC(CSc2nc3ccccc3[nH]2)OC1=O (centres undefined) | 4.4%
Cc1cc(Nc2cc(F)ccc2C)n2ncnc2n1 | 3.6%
CCn1c(Cc2c(C)[nH]c3ccccc23)n[nH]c1=S | 0.7%
COCC(C)n1c(SCC(=O)NC(=O)Nc2ccc3c(c2)OCCO3)nc2ccccc2c1=O (centres undefined) | 4.1%
Cc1occc1C(=O)Nc1ccc(S(=O)(=O)N2CCCC2)cc1 | -11.0%
COc1ccc(C(=O)N2CCC(C(=O)NCc3ccccn3)CC2)cc1 | 3.4%
O=C1N/C(=C\c2ccccc2)c2ccccc21 | ?
COC(=O)c1oc2c(c1C)C1(CCC2)SCCS1 | ?
Cc1c(C(=O)Nc2ccc(F)cc2)oc2ccc(S(=O)(=O)N3CCCC3)cc12 | -12.5%
O=C(Cn1c(=O)n(Cc2ccc3c(c2)OCO3)c(=O)c2ccccc21)N1CCCc2ccccc21 | 3.7%
Cn1cnc2c1c(=O)n(CC(O)CO)c(=O)n2C (centres undefined) | -2.8%
COc1ccc(CNc2cc(-c3cccc(NS(C)(=O)=O)c3)ncn2)c(OC)c1 | 1.2%
CC(/C=C/c1ccccc1)NC(N)=O (centres undefined) | -7.9%
COc1ccc(COC(=O)N/N=C2/C[C@@H](O)[C@@H](O)[C@@H]3[C@@H]4C(=O)N(Cc5ccc6c(c5)OCO6)C(=O)[C@H]4CC[C@H]23)cc1 | -1.2%[11.4 µM]
CCCC(=O)Nc1ccccc1N1CCN(C(=O)C(C)C)CC1 | -59.7%
CC(=O)Nc1ccc(NC(=O)CNS(=O)(=O)c2ccc(C)cc2)cc1 | -7.6%
O=C(c1nc2ccccc2s1)N1CCN(c2ccccn2)CC1 | 5.1%
O=C(Oc1ccc(OC(=O)N2CCCCC2)cc1)c1ccccc1 | -4.3%
COCCNC(=O)C(c1ccc(C)o1)N(Cc1ccc(F)cc1)C(=O)Cn1nnc2ccccc21 (centres undefined) | 1.7%
Cc1ccc(-c2cc(-c3nnc(SCC(=O)N(C)CCC#N)n3N)c3ccccc3n2)cc1 | 25.1µM*
COc1cc(NC(=O)CN2c3cccc4cccc(c34)S2(=O)=O)cc(OC)c1OC | ?
CC(C)(C)NC(=O)Cn1c(SCC(=O)NCc2cccs2)nc2ccccc21 | 0.3%
CCOc1ccc2nc(NC(=O)CSc3nnnn3C3CCCCC3)sc2c1 | -0.9%
O=C(Oc1ccccc1)N1CCC2(CC1)CN(c1ncccn1)C2 | 31.6µM*
CCOC(=O)N1CCN(Cc2ccccc2F)CC1 | 1.8%
CCCn1c(SCC(=O)N2CCN(c3ccccc3)CC2)nc2ccccc2c1=O | 8.4%
COc1ccc(Cc2nc3ccc(S(N)(=O)=O)cc3[nH]2)cc1OC | -3.8%
N#CCc1ccccc1[N+](=O)[O-] | -5.9%
Cn1c(=O)[nH]c(=O)c2c1nc(NCc1ccccc1)n2CCCc1ccccc1 | 13.0%
CCNC(=S)NCC | -1.9%
CCC(C)[C@H](NC(=O)NCc1ccco1)C(=O)O (some centres undefined) | 8.1%
O=c1c(CCc2ccccc2)nc2cnc(N3CCOCC3)nc2n1Cc1cccs1 | 10µM*
CCNC(=O)CCn1nc(-c2ccc(Cl)cc2)c2ccccc2c1=O | 7.0%
O=C(O)[C@H]1CN[C@H](C(=O)O)C1 | -18.9%
Cc1nnc(SCCn2c(Br)nc3c2c(=O)[nH]c(=O)n3C)s1 | -6.0%
COc1ccc2c(-c3cccnc3)cc(=O)[nH]c2c1 | ?
Cc1ccc2[nH]c3c(c2c1)CCC3=O | 31.6µM*
CN(CCO)C(=O)CCC(=O)Nc1ccc(S(N)(=O)=O)cc1 | 4.1%
O=C(c1ccccc1F)N1CCN(c2ccccc2)CC1 | 2.9%
CCC(=O)c1ccc(OCC(O)CN2CCOCC2)cc1 (centres undefined) | 1.3%
CC/C=C/C/C=C/C/C=C/CCCCCCCC(=O)OCC | ?
CCCn1c(CCc2ccccc2)nnc1SCC(=O)N1CCOCC1 | 9.4%

(further entries)
SMILES | HSD17B inhib
Cc1cc(C)n2c(SCC#N)nnc2n1 | -2.3%
O=C1NC(=O)c2cc(Nc3ccccc3)c(Nc3ccccc3)cc21 | -12.9%
CCc1nnc(NC(=O)CSc2nnc(-c3cc4ccccc4cc3O)n2CC)s1 | -5.3%
Cc1ccc(OCc2nnc(SCc3cc(=O)[nH]c4ccccc34)o2)cc1 | -0.4%
COc1cc(C(=O)N(Cc2cc3cc(C)ccc3[nH]c2=O)CC2CCCO2)cc(OC)c1OC (centres undefined) | -3.9%
O=S(=O)(c1ccc(-c2nnc(SCc3ccccc3)o2)cc1)N1CCCC1 | -8.5%
COCCN(Cc1cc2ccccc2[nH]c1=O)C(=O)c1ccccc1OC | ?
CCn1c(CNC(=O)COC)nc2ccccc21 | -0.6%
Cc1cc(C)c(C(N)=O)c(Nc2ccc3c(c2)OCCO3)n1 | -2.5%
CCOC(=O)C1C(=O)OC2(CCCC2)C1C(=O)OCC (centres undefined) | 2.2%
